VDR inh: blocks the human vitamin D receptor; P11473; VDR-SRC2-3 peptide fluorescence polarization, 2 h; Potency, µM, for inactives: max response, negative = inhibition, actives largely listed as inhibitors; actives 0.93% (n = 400,000); AID 504847; active means well fitted inhibition curve with a large enough effect; inconclusive means small, poorly fitted or top-dose-only effect, or another doubt; inactive means no such curve, though single readings can be large or run the other way; further: series mostly up to about 120 µM
Target sequence (P11473 whole entry, looked up): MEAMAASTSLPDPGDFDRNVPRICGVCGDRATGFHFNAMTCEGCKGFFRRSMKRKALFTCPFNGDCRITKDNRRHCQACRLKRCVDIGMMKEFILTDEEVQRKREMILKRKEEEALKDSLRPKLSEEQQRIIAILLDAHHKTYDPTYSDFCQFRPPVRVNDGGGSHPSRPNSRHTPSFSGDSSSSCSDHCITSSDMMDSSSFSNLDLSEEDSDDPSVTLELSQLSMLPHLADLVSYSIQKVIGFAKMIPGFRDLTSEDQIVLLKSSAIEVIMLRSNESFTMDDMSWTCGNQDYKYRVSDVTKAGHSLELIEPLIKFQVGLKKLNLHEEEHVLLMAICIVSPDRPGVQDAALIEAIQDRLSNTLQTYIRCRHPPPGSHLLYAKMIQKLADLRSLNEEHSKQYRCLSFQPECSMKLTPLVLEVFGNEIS
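The screen uses fluorescence polarization to detect compounds that interfere with recruitment of the SRC2-3 coactivator peptide to VDR; plates are read after 2 h at room temperature.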
* marks the source's active call; other numbers are inactive results; & = joins results of further samples; [ ] = remark or other dose. On the % scale 0 is the no-effect control and ±100 the full control effect; potency means the concentration at half of the fitted maximal effect. These rows are one share of the data (hit frequency here may not be typical).

For COc1ccc(C)cc1Cn1nnc2ccccc21 the results were VDR inh -14%.
Cc1nc2ccccn2c1C(=O)NC1CCCC1 was read as VDR inh 0%.
`O=C(Cc1ccccc1)NN1C(=O)c2ccccc2C1=O` gave VDR inh 9%.
O=C(c1ccc2nccnc2c1)N1CCCC(Nc2ccc(F)c(F)c2)C1 (stereo not given) was read as VDR inh -15%.
For CCC1CCc2sc(C(=O)N(C)CC(=O)Nc3ccc(N4CCOCC4)cc3)cc2C1 (stereo not given) the results were VDR inh -17%.
CCOC(=O)C1=C(c2ccccc2)N2CCS(=O)(=O)N=C2S1 was read as VDR inh 15%.
Screening Cc1ccc(NC(=O)CSc2ccccn2)cc1S(=O)(=O)N1CCOCC1 returned VDR inh 33%[activator].
`CCOc1ccc(C(=O)Nc2ccc(-c3nc4cc(CC)ccc4o3)cc2)cc1` gave VDR inh -2%.
`CN(CC(=O)Nc1ccc(F)c(F)c1F)C(=O)CC1CCCCC1` gave VDR inh -22%.
Screening O=C(Nc1ccccc1)N1CCCN(c2nccc(C(F)(F)F)n2)CC1 returned VDR inh 2%.
COc1cccc(Cn2c(=O)cnc3cnc(N(C)C)nc32)c1 was read as VDR inh inconclusive.
O=C(Nc1ccc(F)cc1)c1c(Cl)nc2ccccn12 was read as VDR inh 4%.
`N#CCCN1CCN(Cc2ccccc2)CCC1=O` gave VDR inh 8%.
COc1cccc(N2CCN(c3ccc4nnc(CCC(=O)N5CCN(C)CC5)n4n3)CC2)c1 was read as VDR inh 0%.
For COc1cc(-c2cc(OC)c(O)c(OC)c2)cc(OC)c1O the results were VDR inh 10%.
COc1cc(Br)c(CNc2cc(C)ccc2C)cc1OC was read as VDR inh -11%.
`Cc1ccc(NC(=O)Cn2c(=O)n(CC(=O)NCCc3ccccc3)c(=O)c3ccccc32)cc1C` gave VDR inh -24%.
Screening Cc1ccc(CNC(=O)c2cccc3c2C(=O)c2ccc(N4CCCCC4)cc2S3(=O)=O)cc1 returned VDR inh -4%.
CC(C)CC(c1nnnn1Cc1ccccc1)N1CCC(C(N)=O)CC1 (stereo not given) was read as VDR inh -1%.
`CCCCCNc1nc(-c2ccccc2)nc(-n2ccnc2)n1` gave VDR inh -9%.
COc1ccc2cc(C(c3nnnn3C3CCCC3)N3CCCCCC3)c3nnnn3c2c1 (stereo not given) was read as VDR inh -9%.
`Cc1cc(C)c2c(=O)cc(C(=O)Nc3ccc(S(=O)(=O)Nc4nc(C)cc(C)n4)cc3)oc2c1` gave VDR inh 19%.
For Cc1nnc(SCC(=O)N2CCc3ccccc32)s1 the results were VDR inh 0%.
`CCCC(NCC(=O)Nc1cc(S(=O)(=O)N2CCOCC2)ccc1OC)c1ccccc1` (stereo not given) gave VDR inh -10%.
Screening Cc1ccc(-c2ccc(CCC(=O)O)n2-c2ccc(C(N)=O)cc2)cc1 returned VDR inh -5%.
COc1ccccc1CNc1nc2nc(C)c(Cl)c(=O)n2[nH]1 was read as VDR inh 18%.
For CC(C)(C)C(=O)CSc1nc2ncc(Br)cc2[nH]1 the results were VDR inh 13%.
Screening CCOc1cccc(C2c3c(-c4cc(C)ccc4O)n[nH]c3C(=O)N2Cc2ccco2)c1 (stereo not given) returned VDR inh 10%.
For Cc1nc(Cc2nnc(SCC(=O)N3CCN(c4ccccc4)CC3)o2)cs1 the results were VDR inh -11%.
Cc1nc2ccc(NC(=O)c3ccccc3)cc2s1 was read as VDR inh -5%.
`COc1ccccc1N1CCN(S(=O)(=O)CC23CCC(CC2=O)C3(C)C)CC1` (stereo not given) gave VDR inh 11%.
For CCc1ccc(Cn2ncc3c(C(=O)O)cc(C)nc32)cc1 the results were VDR inh -10%.
Screening COc1ccccc1CCNC(=O)CCc1c(C)c2cc3c(C)coc3cc2oc1=O returned VDR inh 19%.
Cn1cccc1C(=O)OCC(=O)c1ccc(Br)s1 was read as VDR inh -17%.
For Cc1ccc(Cl)cc1NC(=O)CN1C(=O)CSc2ccc(S(=O)(=O)N3CCCC3)cc21 the results were VDR inh 1%.
CCC(CC)NC(=O)CO/N=C/c1ccc(Cl)cc1Cl was read as VDR inh -9%.
Screening Cc1ccc(-n2c(C)cc(C(=O)CN3CCOCC3)c2C)cc1 returned VDR inh -7%.
Cc1ccc(NC(=O)CSc2nc(O)cc(=O)n2C)cc1 was read as VDR inh 5%.
O=C(CCC(=O)Nc1ccccc1)NNS(=O)(=O)c1ccccc1[N+](=O)[O-] was read as VDR inh -17%.
`CCOc1ccc(OCc2ccc(C(=O)N3CCCC(C)C3)cc2)cc1` (stereo not given) gave VDR inh 0%.

A portion from the list above:
COc1ccc2cc(C(c3nnnn3C3CCCC3)N3CCCCCC3)c3nnnn3c2c1 (stereo not given) was read as VDR inh -9%.
`Cc1cc(C)c2c(=O)cc(C(=O)Nc3ccc(S(=O)(=O)Nc4nc(C)cc(C)n4)cc3)oc2c1` gave VDR inh 19%.
For Cc1nnc(SCC(=O)N2CCc3ccccc32)s1 the results were VDR inh 0%.
`CCCC(NCC(=O)Nc1cc(S(=O)(=O)N2CCOCC2)ccc1OC)c1ccccc1` (stereo not given) gave VDR inh -10%.
Screening Cc1ccc(-c2ccc(CCC(=O)O)n2-c2ccc(C(N)=O)cc2)cc1 returned VDR inh -5%.
COc1ccccc1CNc1nc2nc(C)c(Cl)c(=O)n2[nH]1 was read as VDR inh 18%.
For CC(C)(C)C(=O)CSc1nc2ncc(Br)cc2[nH]1 the results were VDR inh 13%.
Screening CCOc1cccc(C2c3c(-c4cc(C)ccc4O)n[nH]c3C(=O)N2Cc2ccco2)c1 (stereo not given) returned VDR inh 10%.
For Cc1nc(Cc2nnc(SCC(=O)N3CCN(c4ccccc4)CC3)o2)cs1 the results were VDR inh -11%.
Cc1nc2ccc(NC(=O)c3ccccc3)cc2s1 was read as VDR inh -5%.
`COc1ccccc1N1CCN(S(=O)(=O)CC23CCC(CC2=O)C3(C)C)CC1` (stereo not given) gave VDR inh 11%.
For CCc1ccc(Cn2ncc3c(C(=O)O)cc(C)nc32)cc1 the results were VDR inh -10%.
Screening COc1ccccc1CCNC(=O)CCc1c(C)c2cc3c(C)coc3cc2oc1=O returned VDR inh 19%.
Cn1cccc1C(=O)OCC(=O)c1ccc(Br)s1 was read as VDR inh -17%.
For Cc1ccc(Cl)cc1NC(=O)CN1C(=O)CSc2ccc(S(=O)(=O)N3CCCC3)cc21 the results were VDR inh 1%.
CCC(CC)NC(=O)CO/N=C/c1ccc(Cl)cc1Cl was read as VDR inh -9%.
Screening Cc1ccc(-n2c(C)cc(C(=O)CN3CCOCC3)c2C)cc1 returned VDR inh -7%.

Additional records follow.
`Cc1cc(/C=C2/NC(=O)NC2=O)c(C)n1-c1ccc(N2CCOCC2)cc1` gave VDR inh -15%.
`Cn1cnnc1SCC(=O)OCN1C(=O)c2ccccc2C1=O` gave VDR inh 4%.
COc1ccccc1NC(=O)COC(=O)c1ccc2c(c1)OCCO2 was read as VDR inh inconclusive.
For Cc1ccc(CN2CC(C(=O)N3CC(C)CC(C)C3)CC2=O)cc1 (stereo not given) the results were VDR inh -4%.
`Cc1nn(-c2ccc(C(=O)OC(C)C)cc2)c(C)c1[N+](=O)[O-]` gave VDR inh -5%.
`Cc1n[nH]c(C)c1Cc1ccc(C(=O)O)cc1` gave VDR inh 5%.
Screening Cc1c(C(=O)C(=O)NCCc2ccc(S(N)(=O)=O)cc2)c2ccccc2n1C returned VDR inh -11%.
For CC(C)c1ccc(OCC(=O)NCC(c2ccc(Cl)cc2)N2CCOCC2)cc1 (stereo not given) the results were VDR inh 6%.
For Cc1ncoc1C(=O)Nc1cccc(Cl)c1 the results were VDR inh 5%.
Screening CCOC(=O)N1CCC(N2CCN(C3CCCC3)C(CCO)C2)CC1 (stereo not given) returned VDR inh 14%.
CCN1C(=O)c2cccc3c(S(=O)(=O)Nc4ccccc4)ccc1c23 was read as VDR inh -11%.
Screening COc1ccccc1CNC(=O)[C@H](Cc1c[nH]c2ccccc12)NC(=O)[C@@H]1Cc2ccccc2CN1 returned VDR inh 5%.
`CC12CC(=O)C3C(CCC4=CC(=O)CCC43C)C1CC=C2CC(=O)O` (stereo not given) gave VDR inh -8%.
For Cc1cccc(-c2nc3ccccc3c(=O)n2N)c1 the results were VDR inh 11%.
O=C(NCC1CCN(c2ccc(S(=O)(=O)N3CCOCC3)cc2)CC1)Nc1ccccc1 was read as VDR inh inconclusive.
O=C(O)C1CCNCC1 was read as VDR inh 4%.
Cc1ccc(Cn2ccsc2=NC(=O)CCl)cc1 was read as VDR inh 3%.
O=C(Nc1ccc2ccccc2n1)c1ccccc1 was read as VDR inh -7%.
O=S(=O)(c1cccc(C(F)(F)F)c1)N1CCN(c2nc(-c3ccccc3)nc3ccccc23)CC1 was read as VDR inh 6%.
Screening O=C(Nc1ccccn1)c1c(O)c2cccc3c2n(c1=O)CCC3 returned VDR inh 5%.
For CN1CCN(CC(=O)c2cc(C(C)(C)C)c(O)c(C(C)(C)C)c2)CC1 the results were VDR inh 71µM*.
Screening Cc1ccc(S(=O)(=O)NN2C(=O)c3ccccc3NC2C)cc1 (stereo not given) returned VDR inh -5%.
`CC1CCN(C(=O)Cn2nnnc2CN2CCOCC2)CC1` gave VDR inh -10%.
Screening O=C(CCN1C(=O)S/C(=C/c2ccccc2)C1=O)Nc1ccc(O)c(C(=O)O)c1 returned VDR inh inconclusive.
`O=C(Cc1ccc(-c2ccccc2)cc1)Nc1ccccc1` gave VDR inh -1%.
`C/C(=N\NC(=O)c1cccs1)c1ccncc1` gave VDR inh 2%.
For CCC(C(=O)Nc1ccc(C(=O)OC)cc1)n1nc(-c2ccc(C)cc2)c2c(c1=O)CCCC2 (stereo not given) the results were VDR inh 1%.
O=C(CN1CCN(c2ccccc2)CC1)Nc1ccccc1C(F)(F)F was read as VDR inh 11%.
Screening Cc1cc(C)nc(N(C#N)CN2C(=O)c3ccccc3S2(=O)=O)n1 returned VDR inh -14%.
Cc1ccc(Cn2c(O)c(N=NC(=S)Nc3ccccc3F)c3ccccc32)cc1 was read as VDR inh -1%.
O=[N+]([O-])c1cc([N+](=O)[O-])c(N2CCCCCC2)cc1NCCO was read as VDR inh 15%.
For COc1ccc(-c2ccc(CCC(=O)O)n2C(C)C)cc1 the results were VDR inh 2%.
`COc1ccccc1OCCC(=O)OCC(=O)Nc1cccc(Br)c1` gave VDR inh -8%.
For CC12CCC3C(CCC4N(CCO)CCC34C)C1CCC2O (stereo not given) the results were VDR inh 1%.
`O=C(Nn1cnc2ccccc2c1=O)c1ccc(Cl)c([N+](=O)[O-])c1` gave VDR inh -21%.
Screening COc1ccccc1C(=O)NC(=O)COC(=O)c1nc(Cl)ccc1Cl returned VDR inh -19%.
Cc1cc(=O)n2c3ccccc3n(CC(O)CN3CCCC3)c2c1C#N (stereo not given) was read as VDR inh 20%.
For CCCN(CCC)Cc1c(C(=O)N/N=C/c2ccc(Br)cc2)nnn1-c1nonc1N the results were VDR inh 11%.
Screening CC(=O)Nc1ccc(NC(=O)N(c2ccccc2)c2ccccc2)cc1 returned VDR inh 7%.
CNc1nc(Oc2ccc(=O)n(C)n2)nc(N2CCOCC2)n1 was read as VDR inh 1%&-11%.
CC(CCN1CCC(n2nccc2NC(=O)c2ccccc2Cl)CC1)c1ccccc1 (stereo not given) was read as VDR inh -12%.
COc1ccc(N2CCN(C(=O)C3Cc4ccccc4CN3C(=O)c3ccccc3)CC2)cc1 (stereo not given) was read as VDR inh -9%.
Cc1ccc2cc(C#N)c(N3CCN(C(=O)c4cccs4)CC3)nc2c1 was read as VDR inh 6%.
`CN(C(=O)COC(=O)c1ccc2[nH]c3c(c2c1)CCCC3)C1CCS(=O)(=O)C1` (stereo not given) gave VDR inh 9%.
Screening CCc1noc(C)c1C(=O)NCCc1ccc(S(N)(=O)=O)cc1 returned VDR inh 10%.
Screening COC(=O)c1ccc(CSc2ccccc2C)o1 returned VDR inh -11%.
Screening CC1CC(C(=O)Nc2ccccc2)C(=O)O1 (stereo not given) returned VDR inh 23%.
Screening CC(C)(O)[C@@H]1Cc2c(ccc3ccc(=O)oc23)O1 returned VDR inh -14%.
For CNCC(O)COc1ccccc1 (stereo not given) the results were VDR inh 2%.
`COc1ccccc1CC(NC(C)=O)C(=O)NC1CCN(C(=O)Nc2ccc(F)cc2)CC1` (stereo not given) gave VDR inh 4%.
For CO/N=C/NC(=O)C1=NOC(CNc2ncc(C(F)(F)F)cc2Cl)C1 (stereo not given) the results were VDR inh 9%.
Screening Cc1ccc(F)c(C2=CC(=O)C[C@H](c3ccc(F)cc3)C2)c1 returned VDR inh 0%.
For Cc1cc(C(=O)Cn2nnc(-c3ccc(Cl)cc3)n2)c(C)n1-c1ccccc1 the results were VDR inh -16%.
`CCOc1cc(C(=O)N2CCCN(C)CC2)cc(OCC)c1OCC` gave VDR inh 2%.
For Cc1c(NC(=O)C(C)OC(=O)CCC2CCCC2)c(=O)n(-c2ccccc2)n1C (stereo not given) the results were VDR inh 1%.
`CC(=O)C(C)Oc1ccc2c3c(c(=O)oc2c1)CCCC3` (stereo not given) gave VDR inh -5%.
`O=C(Cn1nc(Cl)nc1Cl)c1ccc(F)cc1` gave VDR inh 6%.
Cc1cc(C)c(S(=O)(=O)N2CCCOC2CNC(=O)C(=O)NCCC2=CCCCC2)c(C)c1 (stereo not given) was read as VDR inh 14%.
Screening Cc1c(C(=O)O)sc2nc(/C=C/c3cccc(O)c3)[nH]c(=O)c12 returned VDR inh -15%.
`COc1ccccc1N(CC(O)CN(c1ccccc1)S(C)(=O)=O)S(=O)(=O)c1ccccc1` (stereo not given) gave VDR inh 0%.
Screening Cc1c(Cl)c([N+](=O)[O-])nn1CCCC(=O)Nc1c(Cl)cccc1Cl returned VDR inh -8%.
Screening O=c1c(-c2ccccc2)c(O)c2c(n1-c1ccccc1)CCCC2 returned VDR inh -4%.
O=C(Nc1ccc(NC(=S)NC(=O)C(c2ccccc2)c2ccccc2)cc1)c1ccccc1 was read as VDR inh 0%.
CCC(C(=O)NCc1ccco1)n1nc(C)c2c(C)n(-c3ccc(C)cc3)nc2c1=O (stereo not given) was read as VDR inh -14%&3%.
Screening Fc1ccc2cnc(-c3ccccc3)cc2c1 returned VDR inh -4%.
